PI4K2A block = qHTS for small molecular inhibitors of PI4K2A; AID 1346378, 2018; hit rate 0.13% among 420,000; activity change, negative = inhibition, % at 76.9 µM; purified PI4K2A, ADP-Glo luminescence, 1 h; hits give low values; in the data active = activity change below about -50%; inconclusive = mostly about -30% to -49%;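 also: -100% = wells without enzyme as full effect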
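PI4K2A activity was measured by ADP-Glo luminescence: enzyme (4 ug/mL stock) and phosphatidylinositol (1.2 mM stock) in Tris pH 7.5/MgCl2/EGTA/Triton X-100 buffer were reacted with ATP (300 microM stock) for one hour at ambient temperature.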
TrxR1 substrate = qHTS Assay for Substrates of Mammalian Selenoprotein Thioredoxin Reductase 1 (TrxR1): qHTS; purified TrxR1 substrate turnover, NADPH consumption readout; hit rate 0.01% among 390,000; Thioredoxin reductase 1, cytoplasmic (Rattus norvegicus), O89049; AID 588456, 2011; Potency, µM (series often up to 114 µM), without a hit: at the top dose activity change, negative = substrate turnover; also: potency is read from the fitted curve at half-maximal effect; nearly all actives have a fitted effect of over 50% in size
Target sequence (O89049 whole entry, looked up): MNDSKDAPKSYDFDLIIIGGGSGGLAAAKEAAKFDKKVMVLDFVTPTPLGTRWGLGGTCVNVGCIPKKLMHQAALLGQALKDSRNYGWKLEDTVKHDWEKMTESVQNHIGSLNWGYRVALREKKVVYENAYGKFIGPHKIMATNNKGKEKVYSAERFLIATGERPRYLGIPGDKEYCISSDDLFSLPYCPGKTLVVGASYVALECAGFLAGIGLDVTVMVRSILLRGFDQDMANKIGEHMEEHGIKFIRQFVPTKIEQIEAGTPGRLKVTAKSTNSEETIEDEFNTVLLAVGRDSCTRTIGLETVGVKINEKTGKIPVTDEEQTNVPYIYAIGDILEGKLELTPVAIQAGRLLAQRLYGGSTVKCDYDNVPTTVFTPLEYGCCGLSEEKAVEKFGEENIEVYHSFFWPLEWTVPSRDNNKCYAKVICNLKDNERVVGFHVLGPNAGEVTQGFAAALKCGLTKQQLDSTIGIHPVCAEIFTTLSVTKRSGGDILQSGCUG
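Rat TrxR1, dispensed at 90 nM, was prereduced with 400 uM NADPH (final) for 5 min at ~22 deg C, then incubated with compound 15 min before 400 uM selenite. A first-read NADPH fluorescence drop versus no-compound background flagged substrates.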
rTrxR1 inhibitor = qHTS Assay for Inhibitors of Mammalian Selenoprotein Thioredoxin Reductase 1 (TrxR1): qHTS | Potency, µM (doses to about 114 µM), for inactives: top-dose activity change, negative = inhibition, usual class: inhibitors | Thioredoxin reductase 1, cytoplasmic (Rattus norvegicus), O89049 | hit rate 1% among 390,000 | recombinant rTrxR1, NADPH fluorescence consumption, selenite substrate; also: potency is read from the fitted curve at half-maximal effect; nearly all actives have a fitted effect of over 65% in size
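Rat TrxR1 (90 nM in the dispensed reagent) was pre-reduced with 400 uM NADPH for 5 min at room temperature, then incubated with compound for 15 min. After 400 uM selenite was added, NADPH fluorescence (Ex 340/Em 450 nm) was followed for 8 min.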
USP1 inh = Inhibitors of USP1/UAF1: Primary Screen; Ubiquitin carboxyl-terminal hydrolase 1 (Homo sapiens), O94782; recombinant USP1/UAF1, Ub-Rhodamine cleavage fluorescence; Potency, µM (doses to about 57.1 µM), for the others: at the highest dose activity change, negative = inhibition, actives largely listed as inhibitors; hit rate 0.23% among 390,000; AID 743255, 2014; also: potency is read from the fitted curve at half-maximal effect; nearly all actives have a fitted effect of over 60% in size; inactives centre near -12
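1 nM enzyme complex + cpd, 15 min RT; start with Ub-Rho 150nM final; kinetic fluorescence ex 480/em 540, 6 reads q60 s. Buffer 50mM HEPES pH 7.8, 0.5mM EDTA, 0.1 mg/ml BSA, 1mM TCEP, 0.01% Tween-20.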
mIDH1 inhibitor = qHTS for Inhibitors of mutant isocitrate dehydrogenase 1 (IDH1): qHTS; IDH1-R132H enzyme, NADPH consumption, diaphorase/resazurin fluorescence; Potency, µM (highest dose often 76.6 µM), without a hit: at the highest dose activity change, negative = inhibition, actives largely listed as inhibitors; hit rate 0.093% among 390,000; AID 602179, 2012; also: potency is read from the fitted curve at half-maximal effect; nearly all actives have a fitted effect of over 65% in size
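IDH1-R132H (0.5 ug/mL) preincubated 30 min with compound, then NADPH (0.016 mM) and alpha-KG (2 mM) added; 80 min at RT, pH 7.5. Remaining NADPH coupled via diaphorase/resazurin to fluorescence (540/590 nm); concentration-response curves normalized to no-enzyme control.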
Active calls of the source: *; & = joins results of further samples; ! = a repeat was not active; [ ] = dose if it differs, or a comment. Unless noted, calls follow the shape of the dose curve; as a rule, active = well fitted inhibition curve with a large enough effect; inconclusive = small, poorly fitted or top-dose-only effect; inactive = no such curve, though single readings can be large or run the other way. Unless noted, % is scaled to controls: 0 for no effect and ±100 for the full control effect.

COc1cc2c(c(OC)c1OC)-c1ccc(OC)c(=O)cc1C(NC(C)=O)CC2 (stereo not given) was read as PI4K2A block -6, TrxR1 substrate -7%, rTrxR1 inhibitor 8%, USP1 inh -19% and mIDH1 inhibitor 4%.
Screening CC(C)(O)C(=O)Nc1ccc([N+](=O)[O-])c(C(F)(F)F)c1 returned PI4K2A block 3, TrxR1 substrate 2%, rTrxR1 inhibitor 3%, USP1 inh -26% and mIDH1 inhibitor -5%.
Screening CC(C)[C@]12CC(=O)[C@H](C)[C@H]1C2 returned PI4K2A block -5, TrxR1 substrate 3%, rTrxR1 inhibitor 9%, USP1 inh -27% and mIDH1 inhibitor -6%.
`C[C@]12CC[C@H](O)CC1=CCC1C2CC[C@]2(C)C(=O)CC[C@@H]12` (stereo not given in full) gave rTrxR1 inhibitor 6%.
`C/C=C/c1ccc2c(c1)OCO2` gave PI4K2A block -2, TrxR1 substrate 12%&3%, rTrxR1 inhibitor 28%, USP1 inh -23% and mIDH1 inhibitor 3%.
[N-]=[N+]=CC(=O)OC[C@H](N)C(=O)O was read as PI4K2A block -2&0, TrxR1 substrate 9%, rTrxR1 inhibitor 15%, USP1 inh -18% and mIDH1 inhibitor 1%.
CC1=C(C(=O)Nc2ccccc2)S(=O)(=O)CCO1 was read as PI4K2A block -1, TrxR1 substrate 6%[57.1 µM], rTrxR1 inhibitor 15%[57.1 µM], USP1 inh -7% and mIDH1 inhibitor 3%.
Screening C[C@]12CCC(=O)C=C1CCC1C2CC[C@@]2(C)C1CC[C@@H]2O (stereo not given in full) returned PI4K2A block 6, TrxR1 substrate 0%, rTrxR1 inhibitor 11%, USP1 inh -16% and mIDH1 inhibitor 0%.
Screening C[N+](C)(C)CCCCCCCCCC[N+](C)(C)C returned PI4K2A block 3&4&-1, TrxR1 substrate 11%[57.1 µM], rTrxR1 inhibitor 20%[57.1 µM], USP1 inh inconclusive and mIDH1 inhibitor 9%.
Screening Cc1cc(Cl)ccc1OC(C)C(=O)O (stereo not given) returned PI4K2A block 3, TrxR1 substrate -1%, rTrxR1 inhibitor 9%, USP1 inh -18% and mIDH1 inhibitor -1%.
Screening NCCc1c[nH]c2ccc(O)cc12 returned PI4K2A block -3&-2, TrxR1 substrate 2%[57.1 µM], rTrxR1 inhibitor inconclusive, USP1 inh -1% and mIDH1 inhibitor 0%.
Screening COc1cc2c(c(OC)c1OC)-c1ccc(OC)c(=O)cc1[C@@H](NC(C)=O)CC2 returned PI4K2A block 0&0&1, TrxR1 substrate inconclusive, rTrxR1 inhibitor inconclusive, USP1 inh 16% and mIDH1 inhibitor -7%.
`CN(C)[C@@H]1C(=O)C(C(N)=O)=C(O)[C@@]2(O)C(=O)C3=C(O)c4c(O)cccc4[C@@](C)(O)C3[C@H](O)C12` (stereo not given in full) gave PI4K2A block -26&-9, TrxR1 substrate 3%&-3%, rTrxR1 inhibitor 32µM*!, USP1 inh inconclusive and mIDH1 inhibitor 10%&13%.
For C[C@]12CCC3C(CC[C@H]4CC(=O)CC[C@]34C)C1CCC2=O (stereo not given in full) the results were PI4K2A block -2, TrxR1 substrate -5%, rTrxR1 inhibitor 7%, USP1 inh inconclusive and mIDH1 inhibitor -3%.
For Brc1c(NC2=NCCN2)ccc2nccnc12 the results were PI4K2A block -1&-6, TrxR1 substrate inconclusive and rTrxR1 inhibitor inconclusive.
`Nc1ncc([N+](=O)[O-])s1` gave PI4K2A block 0, TrxR1 substrate -2%, rTrxR1 inhibitor 11%, USP1 inh -18% and mIDH1 inhibitor inconclusive.
`COC(=O)C1=CCCN(C)C1` gave PI4K2A block -8&-2&1, TrxR1 substrate 1%[57.1 µM], rTrxR1 inhibitor 3%[57.1 µM], USP1 inh -10% and mIDH1 inhibitor 12%.
COC1=CC2C3Cc4ccc(OC)c(O)c4C2(CCN3C)CC1=O (stereo not given) was read as PI4K2A block 5, TrxR1 substrate 5%, rTrxR1 inhibitor 7%, USP1 inh -20% and mIDH1 inhibitor -3%.
For CC(C)N(CCC(C(N)=O)(c1ccccc1)c1ccccn1)C(C)C (stereo not given) the results were PI4K2A block 3&-6&-2&2&0, TrxR1 substrate -2%[57.1 µM], rTrxR1 inhibitor -7%[57.1 µM], USP1 inh -22%&-16% and mIDH1 inhibitor 4%&3%.
Screening CCCN(CCC)[C@@H]1CCc2ccc(O)cc2C1 returned PI4K2A block 1, TrxR1 substrate 5%[57.1 µM] and rTrxR1 inhibitor 11%[57.1 µM].
Screening CCSC(=O)N1CCCCCC1 returned PI4K2A block 2, TrxR1 substrate 4%, rTrxR1 inhibitor -1%, USP1 inh -7% and mIDH1 inhibitor 11%.

A draw from above in order of formula weight, falling:
Screening CCSC(=O)N1CCCCCC1 returned PI4K2A block 2, TrxR1 substrate 4%, rTrxR1 inhibitor -1%, USP1 inh -7% and mIDH1 inhibitor 11%.
`COC(=O)C1=CCCN(C)C1` gave PI4K2A block -8&-2&1, TrxR1 substrate 1%[57.1 µM], rTrxR1 inhibitor 3%[57.1 µM], USP1 inh -10% and mIDH1 inhibitor 12%.
`Nc1ncc([N+](=O)[O-])s1` gave PI4K2A block 0, TrxR1 substrate -2%, rTrxR1 inhibitor 11%, USP1 inh -18% and mIDH1 inhibitor inconclusive.

By substructure: those above containing a COOH group
[N-]=[N+]=CC(=O)OC[C@H](N)C(=O)O was read as PI4K2A block -2&0, TrxR1 substrate 9%, rTrxR1 inhibitor 15%, USP1 inh -18% and mIDH1 inhibitor 1%.
Screening Cc1cc(Cl)ccc1OC(C)C(=O)O (stereo not given) returned PI4K2A block 3, TrxR1 substrate -1%, rTrxR1 inhibitor 9%, USP1 inh -18% and mIDH1 inhibitor -1%.

By substructure: the entries above containing a nitro group on carbon (2)
Screening CC(C)(O)C(=O)Nc1ccc([N+](=O)[O-])c(C(F)(F)F)c1 returned PI4K2A block 3, TrxR1 substrate 2%, rTrxR1 inhibitor 3%, USP1 inh -26% and mIDH1 inhibitor -5%.
`Nc1ncc([N+](=O)[O-])s1` gave PI4K2A block 0, TrxR1 substrate -2%, rTrxR1 inhibitor 11%, USP1 inh -18% and mIDH1 inhibitor inconclusive.

A portion of the library (hit frequency here may not be typical).
